Screening results: PubChem, several laboratories
MT1-MMP act inh = blockers of MT1-MMP proenzyme processing, primary screen, HT1080 RFP-PRO-GFP cells, GFP/RFP fluorescence; GFP/RFP ratio fluorescence, overnight; percent of plate control window, DMSO zero; 0.061% of 360,000 active; Matrix metalloproteinase-14 (Homo sapiens), P50281; GFP/RFP ratio change, % at 20 µM;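 active = GFP/RFP ratio change of at least 30% with cell ATP level not reduced by more than half and red fluorescence within 50% of control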; note: strong numbers were not always called active
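Assay system: RFP-PRO-GFP reporter HT1080 cells; read-out basis: GFP/RFP fluorescence ratio; benchmarks: DMSO wells and RFP-L50D-GFP cells; doses: 20 µM single dose, 1% DMSO; schedule: overnight cell settling, then overnight compound exposure, 37 °C, 5% CO2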
HIV Env fusion = inhibitors of HIV-1 Env-driven cell-cell fusion, primary screen, HeLa-JRFL effector, CEM21 target cells, luciferase. inhibition, % at 12.3 µM. AID 651610, 2012. 1.1% of 360,000 active;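 active = mean replicate inhibition score of at least 50 and every replicate individually at or above 50; inconclusive = only one of the two criteria met; inactive = mean below 50 and not all replicates reaching 50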;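 note: 0% = plate neutral controls and 100% = maraviroc near 300 nM; one replicate is shown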
MT1-MMP act inh RFP = further read-out of MT1-MMP act inh, marked with its call; RFP signal change, %; measured here: RFP expression control read;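 0 = vehicle wells; hits needed this value within 50% of zero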
* = called active by the depositor.

For O=C(NN1CCCCC1)NN1CCCCC1 the results were MT1-MMP act inh 1, HIV Env fusion 19 and MT1-MMP act inh RFP 3.
Screening COc1ccc(-n2nnnc2C2(C)CCC(=O)N2Cc2ccccc2)cc1 (stereo not given) returned MT1-MMP act inh -2, HIV Env fusion -7 and MT1-MMP act inh RFP 3.
CCOC(=O)c1c(C)[nH]c(C(=O)COC(=O)c2ccco2)c1C was read as MT1-MMP act inh 2, HIV Env fusion -121 and MT1-MMP act inh RFP -1.
Screening Cc1ccc(C)c(S(=O)(=O)N2CCN(C(=O)[C@H](Cc3ccccc3)NC(=O)c3ccco3)CC2)c1 returned MT1-MMP act inh -2, HIV Env fusion 26 and MT1-MMP act inh RFP -4.
For CCC(CC)C(C(=O)NCc1ccccc1)N1CCN(c2cccc(C)c2C)CC1 (stereo not given) the results were MT1-MMP act inh -2, HIV Env fusion -15 and MT1-MMP act inh RFP -3.
Screening O=C(NCC(F)(F)F)C1C(=O)Nc2ccccc2C(=O)N1C1CCCC1 (stereo not given) returned MT1-MMP act inh 0, HIV Env fusion -9 and MT1-MMP act inh RFP 7.
Screening COC(=O)[C@]12CCCCC=C1N(Cc1ccc3c(c1)OCO3)C(=O)[C@H](CC(=O)N1CCN(C(=O)C3CC3)CC1)C2 returned MT1-MMP act inh 4, HIV Env fusion 9 and MT1-MMP act inh RFP 3.
`O=c1[nH][nH]c2c1[C@H](c1ccc(Cl)cc1)O[C@H](C1CCCC1)C2` gave MT1-MMP act inh 10, HIV Env fusion 0 and MT1-MMP act inh RFP 3.
CCOC(=O)[C@]12CCC=C1N(Cc1ccccc1)C(=O)[C@H](CC(=O)NCc1cccs1)C2 was read as MT1-MMP act inh 0, HIV Env fusion -27 and MT1-MMP act inh RFP 0.
O=c1[nH][nH]c2c1[C@@H](c1ccc(F)cc1)O[C@H](CCOCc1ccccc1)C2 was read as MT1-MMP act inh 5, HIV Env fusion 2 and MT1-MMP act inh RFP -1.
Screening O=P(NCc1ccccc1)(OCc1ccccc1)OCc1ccccc1 returned MT1-MMP act inh 6, HIV Env fusion 18 and MT1-MMP act inh RFP -2.
Screening Cc1ccc(Nc2nnc(SCC(O)=C(C#N)c3nc4ccccc4[nH]3)s2)c(C)c1 returned MT1-MMP act inh -11, HIV Env fusion -124 and MT1-MMP act inh RFP 2.
Screening COC(=O)C[C@@H]1C=C[C@H](NC(=O)c2cnccn2)[C@@H](CO)O1 returned MT1-MMP act inh 3, HIV Env fusion -7 and MT1-MMP act inh RFP 4.
Screening CCOC(=O)c1cocc1C(=O)O returned MT1-MMP act inh 6, HIV Env fusion -3 and MT1-MMP act inh RFP -3.
`C[C@H](c1ccccc1)N1C[C@H](COCc2ccccc2)Oc2cc(N3CCC[C@H]3C(N)=O)ccc2S1(=O)=O` gave MT1-MMP act inh 2, HIV Env fusion inconclusive and MT1-MMP act inh RFP -4.
For N#CC(=C(O)COC(=O)c1ccc2c(c1)OCCO2)c1nc2ccccc2[nH]1 the results were MT1-MMP act inh -9, HIV Env fusion -7 and MT1-MMP act inh RFP 0.
Screening Cc1ccccc1-c1cnc(C(O)c2ccc(Cl)cc2)[nH]1 (stereo not given) returned MT1-MMP act inh 1, HIV Env fusion -24 and MT1-MMP act inh RFP -2.
For CC(C)C[C@H]1CNC(=O)C(=O)N1C[C@@H]1CCCN1C[C@H](Cc1ccccc1)N1C[C@H](Cc2ccccc2)N(CC2CCCCC2)C(=O)C1=O the results were MT1-MMP act inh 2, HIV Env fusion -42 and MT1-MMP act inh RFP 3.
For COC(=O)[C@]12CCCCC=C1N(CCc1ccc(OC)c(OC)c1)C(=O)[C@H](CC(=O)NCc1cccs1)C2 the results were MT1-MMP act inh 3, HIV Env fusion 4 and MT1-MMP act inh RFP 0.
For CC(C)(C)n1nnnc1C(c1ccccc1)N1CCN(c2ccccn2)CC1 (stereo not given) the results were MT1-MMP act inh 8, HIV Env fusion -17 and MT1-MMP act inh RFP 10.
Screening COc1ccc2c3c(n(C(=O)OC(C)(C)C)c2c1)C1CC=C(COC(C)=O)CN1CC3 (stereo not given) returned MT1-MMP act inh -8, HIV Env fusion -3 and MT1-MMP act inh RFP -1.
COC(=O)[C@@]1(Cc2ccc(F)cc2)[C@H]2c3cc(C(=O)N4CCCC4)n(CCc4c[nH]c5ccccc45)c3C[C@H]2CN1C(=O)c1ccccc1 was read as MT1-MMP act inh -20, HIV Env fusion -96 and MT1-MMP act inh RFP -22.
Screening CCCCCCCCN1C(=O)[C@H](CC(=O)NCCc2ccccc2OC)C[C@@]2(C(=O)OC)CCCCC=C12 returned MT1-MMP act inh -8, HIV Env fusion 15 and MT1-MMP act inh RFP -17.
CCCCCC(=O)N1C[C@H](O)[C@@H](n2cc(COC(=O)c3ccccc3)nn2)C[C@@H]1c1ccc(Cl)cc1 was read as MT1-MMP act inh -1, HIV Env fusion 9 and MT1-MMP act inh RFP -3.
Screening CCOC(=O)C(=O)N(C)c1c(CC)nc2c(OCc3cccc(OC)c3)cccn12 returned MT1-MMP act inh 0, HIV Env fusion -14 and MT1-MMP act inh RFP 1.
`O=C(Nc1ccccc1)C1=C(Nc2ccccc2)CSC1` gave MT1-MMP act inh -3, HIV Env fusion -14 and MT1-MMP act inh RFP 6.
CC1Cc2[nH][nH]c(=O)c2C(C2CCCC2)O1 (stereo not given) was read as MT1-MMP act inh -1, HIV Env fusion -3 and MT1-MMP act inh RFP 2.
`Cc1ccc(CN2C(=O)CSCC2(C)C(=O)NCc2ccccc2)cc1` (stereo not given) gave MT1-MMP act inh 1, HIV Env fusion -5 and MT1-MMP act inh RFP 1.
Screening CCN(CC)CCNC(Cc1ccccc1)c1cccc(OC)c1 (stereo not given) returned MT1-MMP act inh 2, HIV Env fusion 6 and MT1-MMP act inh RFP 6.
CN(C)c1ccc(C=C2SC(=S)NC2=O)cc1 was read as MT1-MMP act inh -70, HIV Env fusion -21 and MT1-MMP act inh RFP 13.
Screening CCCCNc1c(-c2cccc(OC)c2)nc2nc(C)cc(C)n12 returned MT1-MMP act inh -4, HIV Env fusion 7 and MT1-MMP act inh RFP -5.
`Cc1cccc(N2CCN(C3C(=O)Nc4ccccc4-n4nnnc43)CC2)c1C` (stereo not given) gave MT1-MMP act inh -9, HIV Env fusion 7 and MT1-MMP act inh RFP -15.
`COC(=O)[C@@]12C[C@@H](CC(=O)NCc3ccc(OC)c(OC)c3)C(=O)N(CCc3ccc(OC)c(OC)c3)C1=CCC(C)(C)C2` gave MT1-MMP act inh 4, HIV Env fusion 67* and MT1-MMP act inh RFP 1.
COc1cccc(Cn2cnc(-c3ccccc3OC)c2-c2cccnc2)c1 was read as MT1-MMP act inh -4, HIV Env fusion -7 and MT1-MMP act inh RFP 1.
`NC1=NN(c2c(Cl)cc(Cl)cc2Cl)C(=O)C1` gave MT1-MMP act inh 24, HIV Env fusion -13 and MT1-MMP act inh RFP -2.
Screening O=C(COC(=O)c1c2c(nc3ccccc13)/C(=C\c1ccco1)CC2)NC1CCCC1 returned MT1-MMP act inh 4, HIV Env fusion -2 and MT1-MMP act inh RFP 9.
Screening COC(=O)[C@@]12C[C@@H](CC(=O)NCc3ccc(OC)c(OC)c3)C(=O)N(Cc3cccc4ccccc34)C1=CCC(C)(C)C2 returned MT1-MMP act inh -7, HIV Env fusion -7 and MT1-MMP act inh RFP -25.
CC(C)C[C@@H](CN1CCC[C@H]1CN1C(=O)C(=O)NC[C@@H]1Cc1ccc(O)cc1)N1C[C@H](Cc2ccccc2)N(CCc2ccccc2)C(=O)C1=O was read as MT1-MMP act inh -3, HIV Env fusion -157 and MT1-MMP act inh RFP 1.
Screening CCCCCCCCN1C(=O)[C@H](CC(=O)NCCCOC)C[C@@]2(C(=O)OC)CCCCC=C12 returned MT1-MMP act inh 2, HIV Env fusion inconclusive and MT1-MMP act inh RFP -1.
Screening C[C@H]1COc2cc(N3CCC[C@H]3CO)ccc2S(=O)(=O)N1 returned MT1-MMP act inh 4, HIV Env fusion -16 and MT1-MMP act inh RFP -1.

A draw from above in order of formula weight, high to low.
CC(C)C[C@@H](CN1CCC[C@H]1CN1C(=O)C(=O)NC[C@@H]1Cc1ccc(O)cc1)N1C[C@H](Cc2ccccc2)N(CCc2ccccc2)C(=O)C1=O was read as MT1-MMP act inh -3, HIV Env fusion -157 and MT1-MMP act inh RFP 1.
`COC(=O)[C@@]12C[C@@H](CC(=O)NCc3ccc(OC)c(OC)c3)C(=O)N(CCc3ccc(OC)c(OC)c3)C1=CCC(C)(C)C2` gave MT1-MMP act inh 4, HIV Env fusion 67* and MT1-MMP act inh RFP 1.
Screening COC(=O)[C@@]12C[C@@H](CC(=O)NCc3ccc(OC)c(OC)c3)C(=O)N(Cc3cccc4ccccc34)C1=CCC(C)(C)C2 returned MT1-MMP act inh -7, HIV Env fusion -7 and MT1-MMP act inh RFP -25.
Screening COc1ccc2c3c(n(C(=O)OC(C)(C)C)c2c1)C1CC=C(COC(C)=O)CN1CC3 (stereo not given) returned MT1-MMP act inh -8, HIV Env fusion -3 and MT1-MMP act inh RFP -1.
Screening O=C(COC(=O)c1c2c(nc3ccccc13)/C(=C\c1ccco1)CC2)NC1CCCC1 returned MT1-MMP act inh 4, HIV Env fusion -2 and MT1-MMP act inh RFP 9.
`Cc1cccc(N2CCN(C3C(=O)Nc4ccccc4-n4nnnc43)CC2)c1C` (stereo not given) gave MT1-MMP act inh -9, HIV Env fusion 7 and MT1-MMP act inh RFP -15.
`Cc1ccc(CN2C(=O)CSCC2(C)C(=O)NCc2ccccc2)cc1` (stereo not given) gave MT1-MMP act inh 1, HIV Env fusion -5 and MT1-MMP act inh RFP 1.
`O=C(Nc1ccccc1)C1=C(Nc2ccccc2)CSC1` gave MT1-MMP act inh -3, HIV Env fusion -14 and MT1-MMP act inh RFP 6.

Other structures follow.
For CCCCOCCCNC(=O)C[C@@H]1C[C@@]2(C(=O)OC)CCCCC=C2N(Cc2ccc(Cl)cc2Cl)C1=O the results were MT1-MMP act inh -6, HIV Env fusion 20 and MT1-MMP act inh RFP -9.
Screening CC(C)(C)n1nnnc1C(c1ccccc1)N1CCN(CCN2CCOCC2)CC1 (stereo not given) returned MT1-MMP act inh 3, HIV Env fusion -10 and MT1-MMP act inh RFP 6.
COc1cc(O)c(C=Nc2ccccc2NS(=O)(=O)c2ccc(C)cc2)c(OC)c1 was read as MT1-MMP act inh 4, HIV Env fusion -14 and MT1-MMP act inh RFP 6.
Screening CCOC(=O)C1=CC[C@@H](c2cccc(Br)c2)N(S(=O)(=O)c2ccc(F)cc2)[C@H]1c1cccc(Cl)c1 returned MT1-MMP act inh -8, HIV Env fusion 60* and MT1-MMP act inh RFP -15.
`COC(=O)[C@@]12C[C@@H](CC(=O)NCc3ccccc3)C(=O)N(Cc3ccccc3)C1=CCC(C)(C)C2` gave MT1-MMP act inh -4, HIV Env fusion -6 and MT1-MMP act inh RFP -5.
For O=C(C(=Cc1ccccc1)CN1CCCCC1)c1ccccc1 the results were MT1-MMP act inh 3, HIV Env fusion -74 and MT1-MMP act inh RFP -30.
O=C1C(CN2CCCC2)CCCC1CN1CCCC1 (stereo not given) was read as MT1-MMP act inh 1, HIV Env fusion 30 and MT1-MMP act inh RFP 6.
`NNC(=O)CNC(=O)Nc1n[nH]c(=S)s1` gave MT1-MMP act inh 1, HIV Env fusion inconclusive and MT1-MMP act inh RFP 5.
Screening N#Cc1ccc(-c2nc3c4ccccc4ccn3c2CC2CCCCC2)cc1 returned MT1-MMP act inh -5, HIV Env fusion -20 and MT1-MMP act inh RFP -5.
For COc1ccc(-c2oc3c(c2C#CC(C)(C)O)C(OCCO)CC3)cc1 (stereo not given) the results were MT1-MMP act inh 4, HIV Env fusion 3 and MT1-MMP act inh RFP 3.
Screening c1ccc(C[C@H]2COc3c4ccccc4nn32)cc1 returned MT1-MMP act inh 6, HIV Env fusion -25 and MT1-MMP act inh RFP 0.
`COCCCNC1=C(C#N)C(=O)NC(c2cccc([N+](=O)[O-])c2)S1` (stereo not given) gave MT1-MMP act inh -7, HIV Env fusion 17 and MT1-MMP act inh RFP -2.
Cc1ccc(S(=O)(=O)N[C@H](CNCc2ccccc2)C(C)C)cc1 was read as MT1-MMP act inh 0, HIV Env fusion 18 and MT1-MMP act inh RFP 2.
For CCCCN1C(=O)C(CC(=O)NCCCCc2ccccc2)CC(C(=O)N2CCOCC2)=C1C (stereo not given) the results were MT1-MMP act inh -1, HIV Env fusion 1 and MT1-MMP act inh RFP 0.
For CCNC(=O)C[C@@H]1CC[C@H]2[C@@H](COC[C@H](O)CN2C(=O)C2CC2)O1 the results were MT1-MMP act inh -5, HIV Env fusion 4 and MT1-MMP act inh RFP 8.
`O=C(NCc1ccccc1)C1C(c2ccccc2)=Nc2ccccc2N1C(=O)c1cnccn1` (stereo not given) gave MT1-MMP act inh -1, HIV Env fusion 8 and MT1-MMP act inh RFP 5.
`Cc1nn(-c2ccccc2)c2c1CC(=O)Nc1ccccc1-2` gave MT1-MMP act inh 24, HIV Env fusion -75 and MT1-MMP act inh RFP 6.
For Cc1ccc(C)c(N2N=C(C(=O)Nc3ccc(N4CCOCC4)cc3)CCC2=O)c1 the results were MT1-MMP act inh 3, HIV Env fusion -3 and MT1-MMP act inh RFP 2.
Cc1cc2c(cc1C)C(=O)C(=O)N2 was read as MT1-MMP act inh -14, HIV Env fusion 6 and MT1-MMP act inh RFP 4.

An excerpt (hit frequency here may not be typical).
